Vaccinia Venus = qHTS for Stage-Specific Inhibitors of Vaccinia Orthopoxvirus: Venus Reporter Primary qHTS; Vaccinia virus Venus reporter expression, fluorescence; Potency, µM (titrated, usually from 36.5 µM), without a hit: top-dose activity change, negative = inhibition, actives largely listed as inhibitors; 0.46% of 330,000 active; active means well fitted inhibition curve with a large enough effect; inconclusive means small, poorly fitted or top-dose-only effect; inactive means no such curve, though single readings can be large or run the other way; tested in A549 cells; further: nearly all actives have a fitted effect of over 30% in size; inactives centre near -10
VACV mCherry inh = qHTS for Stage-Specific Inhibitors of Vaccinia Orthopoxvirus: mCherry Reporter Primary qHTS | Vaccinia virus mCherry reporter infection, fluorescence; about a quarter of the inactives have no number | Potency, µM (highest dose often 36.5 µM), for the others: at the top dose activity change, negative = inhibition, usual class: inhibitors | 0.63% of 310,000 active; active = well fitted inhibition curve with a large enough effect; inconclusive = small, poorly fitted or top-dose-only effect; inactive = no such curve, though single readings can be large or run the other way; tested in A549 cells; further: nearly all actives have a fitted effect of over 35% in size; inactives centre near -10
An asterisk follows results filed as active; i = inactive; ? = inconclusive; nt = no result given; & = joins results of further samples; [ ] = dose if it differs, or a comment. On the % scale 0 is the no-effect control and ±100 the full control effect; potency means the concentration at half of the fitted maximal effect.

SMILES	Vaccinia Venus	VACV mCherry inh
Cc1ccc(CCNS(=O)(=O)c2cc3c(cc2Cl)NC(=O)CO3)cc1	-17.2%	-4.2%
COc1ccccc1C(=O)NNC(=O)c1nn(Cc2ccccc2)c(=O)c2ccccc12	-16.1%	-17.0%
CCOC(=O)N1CCC(Nc2nc3ccccc3n3cnnc23)CC1	-9.9%	i
COc1ccc(Cc2nc3ccccc3c(=O)n2N)cc1OC	3.7%	-5.9%
CO/N=C(/C(=O)NC1C(=O)N2C(C(=O)O)=C(COC(N)=O)CSC12)c1ccco1 (centres undefined)	-4.2%	-13.0%
Cc1ccccc1CN1C(=O)CSCC1(C)C(=O)NCc1ccccc1 (centres undefined)	-4.4%	-12.4%
O=C1CNC(=S)N1c1nc(-c2ccccc2)cs1	-20.3%	i
CCCOC(=O)c1c(NC(=O)C(C)Sc2nc(-c3ccccc3)cc(C(F)(F)F)n2)sc(C(=O)N(C)C)c1C (centres undefined)	?	-24.2%
O=C(COC(=O)CCSc1ccc(Cl)cc1)NCc1ccc(Cl)cc1	-15.6%	-3.3%
CCOc1ccccc1NC(=O)COc1ccc(S(=O)(=O)N2CCCC2)cc1	-14.3%	i
COc1ccc(NC(=O)CN(C)C(=O)CN2C(=O)C3CCCCC3C2=O)cc1 (centres undefined)	-7.7%	-13.5%
CC1(C)CC(=O)c2cnc(NC(=O)Cc3ccc(Cl)cc3)nc2C1	-4.8%	-13.6%
Cc1cc(-c2nnc(CCC(=O)NCc3cccc(C(F)(F)F)c3)o2)no1	-18.4%	i
Cc1ccc(NC(=O)CSc2nc3ccc(NC(=O)c4ccco4)cc3s2)c(C)c1	-3.0%	-11.1%
CCOc1ccc(CCN2C(=S)N([C@@H](Cc3ccc(O)cc3)CN3CCCC3CN3C(=S)NC[C@@H]3Cc3ccc(O)cc3)C[C@@H]2CC(C)C)cc1 (some centres undefined)	?	?
O=C(NCc1ccc(OC(F)(F)F)cc1)C1CC2Cn3c(nc4ccccc43)C2N1c1ccccc1 (centres undefined)	-17.3%	-3.8%
CC1(c2ccccc2)NC(=O)N(CC(=O)Nc2cccc(/C=C/c3ccccn3)c2)C1=O (centres undefined)	?	?
CCN(CC)c1ccc(NC(=O)CCCN2C(=O)C(c3ccccc3)Oc3cccnc32)c(C)c1 (centres undefined)	-12.2%	-18.0%
COc1ccc(-c2nn3c(=O)cc(CN4CCN(C(=O)Nc5ccc(C)c(Cl)c5)CC4)nc3s2)cc1	-9.0%	-12.0%
CC1(CO)COC2(OC1)C(=O)Nc1ccccc12 (centres undefined)	-13.9%	i

Filtered by structure, the entries above with a Cl atom (4)
SMILES	Vaccinia Venus	VACV mCherry inh
Cc1ccc(CCNS(=O)(=O)c2cc3c(cc2Cl)NC(=O)CO3)cc1	-17.2%	-4.2%
O=C(COC(=O)CCSc1ccc(Cl)cc1)NCc1ccc(Cl)cc1	-15.6%	-3.3%
CC1(C)CC(=O)c2cnc(NC(=O)Cc3ccc(Cl)cc3)nc2C1	-4.8%	-13.6%
COc1ccc(-c2nn3c(=O)cc(CN4CCN(C(=O)Nc5ccc(C)c(Cl)c5)CC4)nc3s2)cc1	-9.0%	-12.0%

Further records.
SMILES	Vaccinia Venus	VACV mCherry inh
COc1ccccc1C1c2ccc3ccccc3c2Oc2ncn(CCCO)c(=N)c21 (centres undefined)	-25.8%	?
CC(=O)c1ccc(-n2nncc2C(C)(C)C)cc1	-6.3%	-21.8%
Cc1ccc(C)c(NC(=O)CN2C(=O)CC(C)S(=O)(=O)c3ccccc32)c1 (centres undefined)	-9.3%	i
Cc1ccnc(NC(=O)c2cc(S(=O)(=O)N3CCCCC3)ccc2Cl)c1	-25.6%	i
CC(C)(C)Cc1nnc(NS(=O)(=O)Cc2ccccc2)s1	-6.4%	i
O=C(NCC(=O)N(CC1CCCO1)C(C(=O)NC1CCCCC1)c1ccccc1)c1cccs1 (centres undefined)	-11.6%	-14.2%
COc1ccccc1C(C(=O)NCc1ccccc1)N(C(=O)c1csnn1)C1CC1 (centres undefined)	-12.7%	-15.0%
COc1ccc(S(=O)(=O)Nc2ccc3c(c2)CC(=O)N([C@@H](C)CO)C[C@@H](C)[C@@H](CN(C)Cc2ccccc2)O3)cc1	-29.4%	-13.4%
COc1ccc(CNc2nc(-c3ccc(Cl)cc3)cc(C(F)(F)F)n2)cc1	-2.1%	-10.6%
C=CCOc1c(Cl)cc(CNc2nccs2)cc1OC	-9.3%	-14.8%
Cc1cc(=O)[nH]c(SCC(=O)NC(C)C2CC3CCC2C3)c1C#N (centres undefined)	-13.6%	-7.9%
Cc1ccc(S(=O)(=O)N2CCCCC2)cc1C(=O)N1CCN(c2ccccn2)CC1	-9.4%	i
CCOC(=O)Cn1nc(C)c(NC(=O)c2ccc(Br)o2)c1C	-2.1%	i
CCOc1ccccc1NC(=O)c1c(NCc2ccc(C)o2)sc2c1CCCCC2	2.2%	-3.4%
c1cc(-c2ccc(N3CCOCC3)cc2)n2cnnc2c1	-4.9%	-2.6%
CCc1nc2c(OCC(=O)C(C)(C)C)cccn2c1N(C)C(=O)COc1ccccc1	-8.9%	-3.7%
CCn1c(SCC(=O)Nc2nc(-c3ccccc3)cs2)nnc1-c1ccccc1	?	-17.5%
Cc1ccc(/C=N/N2CCN(Cc3cccc4ccccc34)CC2)s1	-8.5%	i
CCCCC[C@@H](O)c1cc2ccccc2c(=O)o1	-9.2%	i
Cn1nc(C(=O)NC2CCCCC2)c2c1-c1ccccc1SC2	-21.2%	i
Cc1ccccc1C(=O)Nc1ccc(S(=O)(=O)NCC2CCCO2)cc1 (centres undefined)	-21.9%	-4.6%
CC(/C=C1\SC(=S)N(CCCC(=O)Nc2ccc(C(=O)O)cc2)C1=O)=C\c1ccccc1	4.2%	-3.4%
O=C(NC1CCN(Cc2ccccc2)CC1)c1cc(S(=O)(=O)Nc2ccc(F)cc2)ccc1Cl	-24.0%	-28.0%
Cc1ccc(C(=O)NCC(=O)N2CCN(c3cccc(Cl)c3)CC2)s1	0.0%	i
COc1ccc(OCc2nnc(SCC(=O)Nc3ccc(C)cc3)o2)cc1	-2.7%	-3.6%
COc1ccc(NC(=O)c2oc3ccccc3c2C)cn1	0.6%	6.7%
O=C(c1cnn2c(C(F)(F)F)cc(-c3cccs3)nc12)N1CCN(Cc2ccccc2)CC1	?	nt
Oc1ccccc1-c1cc(-c2ccc(F)cc2)n[nH]1	-12.4%	-23.0%
COc1ccc2oc(=O)c(C(=O)Nc3ccc(C(=O)O)cc3)cc2c1	4.7%	-3.4%
O=c1c(C(c2ccc(Br)cc2)c2c(O)nc3n(c2=O)CCS3)c(O)nc2n1CCS2	13.6%	i
Cc1ccc(Cl)cc1-c1cc(C(=O)Nc2ccc(F)cc2)[nH]n1	-8.3%	11.2%
COc1ncc(-c2cccc3nccn23)c(OC)n1	8.5%	0.2%
CCCCCc1ccc(OCCCC[n+]2ccccc2)c(CCCCC)c1	?	?
O=C(CSc1ccc(Cl)cc1)Nc1ccccc1	-16.1%	i
CCCn1cc(S(=O)(=O)c2ccc(F)cc2)c(=O)c2cc(OCC)ccc21	17.0%[7.34 µM]	6.4%[7.34 µM]
COC(=O)c1ccc(CSC2=NC[C@@H]3[C@@H]4C(=O)N(C)C(=O)[C@@H]4[C@](C)(C(=O)OC)N23)cc1	2.7%	-19.7%
CCN(C[C@H]1N[C@@](Cc2ccccc2)(C(=O)OC)[C@H]2C(=O)N(Cc3ccccc3)C(=O)[C@@H]12)C(=O)c1ccccc1	0.0%	-3.2%
CCOC(=O)[C@H]1[C@H]2COc3cc(OC)ccc3[C@@H]2N2C(=O)CN(CC3CCCO3)C(=O)[C@@]12C (some centres undefined)	1.0%	i
COCc1cc(C)nc(SCC[N+](C)(C)CC(=O)c2ccc(Br)cc2)c1C#N	0.2%	-0.6%
Cc1c(Cl)cccc1NC(=S)NCCC(c1ccccc1)c1ccccc1	-28.5%	-27.9%
CC(=O)c1ccc(NC(=O)c2ccc(-c3nc(COc4ccc(C)cc4)c(C)o3)cc2)cc1	-3.4%	3.6%
O=C(c1ccc([N+](=O)[O-])cc1)N1CCC(Cc2ccccc2)CC1	-1.3%	-16.2%
CC1CCN(C(=O)/C(=C\c2ccco2)NC(=O)c2ccccc2)CC1	12.3%	i
Cc1noc(NS(=O)(=O)c2ccc(NC(=O)c3cc(F)c(F)c(F)c3F)cc2)c1C	-18.8%	-1.7%
O=c1oc2cc(OCc3ccc(F)cc3F)ccc2cc1-c1ccccn1	-8.0%	-13.1%
CC(C)(C)N1CC(c2nc3ccccc3n2Cc2ccc(F)cc2)CC1=O (centres undefined)	-12.0%	i
Cc1cccc2nc(CSc3nnc(N)s3)cn12	-13.8%	-4.1%
O=[N+]([O-])c1cccc(S(=O)(=O)NCc2ccccn2)c1	-0.1%	?
COc1ccc(-n2nnnc2SCC(=O)N2CCN(C(=O)c3ccco3)CC2)cc1OC	-1.6%	i
Cc1ccc(S(=O)(=O)c2c(C)cc(C)nc2N2CCOCC2)cc1	-11.3%	-12.8%
O=C(NC1CCCCCC1)C1CCN(S(=O)(=O)c2c(Cl)cccc2Cl)CC1	-19.1%	-3.9%
O=CC(=O)c1ccc(Br)cc1	-10.1%	-15.3%
O=C1/C(=C/c2cccnc2)CCC/C1=C\c1cccnc1	?	?
COc1cccc(O)c1CN1CCC(n2nccc2NC(=O)c2ccc3c(c2)OCO3)CC1	-13.4%	i
Cc1cc(C)nc(SCC(=O)N(C)C)n1	1.1%	i
Cc1cc(C)c2nc(-c3ccccn3)cc(C(=O)NCc3ccco3)c2c1	4.2%	nt
O=C(/C=C/c1ccc(Cl)cc1)NC(=S)Nc1ccc(C(=O)O)cc1	-1.7%	i
O=S1(=O)CCO[C@H]2Cc3ccccc3[C@H]2N1Cc1ccccc1Br	-13.2%&-17.0%	-4.6%
COc1ccc(C2CCCN2C(=O)Nc2ccccc2)cc1OC (centres undefined)	-10.6%	i
COc1ccc(-c2c[n+]3c(n2-c2ccccc2)SCC3)cc1OC	5.0%	i

Other records
SMILES	Vaccinia Venus	VACV mCherry inh
COc1ccc(OC)c(C2C3=C(CCCC3=O)NC3=C2C(=O)CCC3)c1	1.2%	-11.9%
Cn1nnnc1SCCNC(=O)C1CCC(=O)N(Cc2cccc(C(F)(F)F)c2)C1 (centres undefined)	-12.7%	?
O=C(Nc1ccccc1N1CCCCC1)c1ccco1	-28.7%	nt
COc1cc(NS(=O)(=O)c2ccc(NC(=S)NC(=O)c3cccs3)cc2)nc(OC)n1	-11.6%	i
Cc1ccc(C(=O)c2sc(Nc3ccccc3)c(C#N)c2N)cc1	-11.3%	-18.2%
Cc1nc(-c2ccc(C)c(N3CCN(C(=O)Nc4cccc(Cl)c4C)CC3)c2)no1	?	-14.3%
O=C(c1ccc(F)cc1Cl)N1CCC2(CC1)OCCO2	-14.3%	-11.6%
CNS(=O)(=O)c1cn(CC(=O)NCc2ccccc2OC)cc1S(=O)(=O)NC	-3.4%	i
O=C(COc1ccc([N+](=O)[O-])cc1)Nc1ccc2c(c1)OCO2	-1.7%	-8.7%
CCOC(=O)c1c(C)oc2ncnc(Nc3ccc(OC)c(OC)c3)c12	-6.8%	-11.0%
O=c1c2ccccc2nc2n1CCN2	-4.0%	-10.5%
O=C(NCCN1CCCC1)c1ccc2c(=O)n(CCc3ccccc3)c(=O)[nH]c2c1	-10.0%	-11.6%
O=C(O)COc1ccc(NC(=O)c2ccc3c(c2)C(=O)N(CC2CCCO2)C3=O)cc1 (centres undefined)	-8.1%	i
CCc1cccc(NC(=O)c2cc3c(=O)oc4ccc(C)cc4c3s2)c1	-12.8%	-1.0%
CC(CN1CCN(C)CC1)OC(=O)c1cccc(F)c1 (centres undefined)	-10.9%	-3.4%
CCN1CCN(c2ncnc3sc(C)c(-c4ccccc4)c23)CC1	-5.4%	-8.8%
Cc1ccc(C(=O)NNC(=O)CCCN2C(=O)/C(=C/c3ccccc3Cl)SC2=S)cc1	-3.7%	i
C=CCc1ccc(OCC(O)CN2CCN(Cc3ccc(Cl)cc3)CC2)c(OC)c1 (centres undefined)	?	?
O=C(Nc1ccccc1)C1=C[C@@H](c2ccc(Br)cc2)C[C@@H](OCc2ccc(CO)cc2)O1	-28.5%	?
CCNC(=O)C1CC(=O)N(Cc2ccc3c(c2)OCO3)C(=Nc2ccc(F)cc2)S1 (centres undefined)	-21.1%	-14.1%
CSCCC(NC(=O)COc1ccccc1)C(=O)OCC(=O)c1ccccc1 (centres undefined)	-3.4%	i
NC(=O)C1(c2ccccc2)OC1c1ccccc1 (centres undefined)	-1.4%	-25.7%
CCOc1ccc(-n2c(SCC(=O)NC)nnc2-c2ccco2)cc1	-9.3%	-6.9%
Cc1cc(C)n2c(SCC(=O)Nc3ccccc3)nnc2n1	7.1%	6.7%
OCCNCCCCOc1cccc(Br)c1	-10.4%	-11.6%
Cn1c(C(=O)O)c(CC(=O)Nc2ccc(F)cc2F)c2ccccc21	-11.2%	i
COC(=O)c1ccccc1NC(=O)Cn1c(=O)n(-c2ccc(Cl)cc2)c(=O)c2c(C)c(C)sc21	-3.8%	-2.5%
N#Cc1ccc(S(=O)(=O)N2CCN(c3nc(-c4ccccc4)nc4ccccc34)CC2)cc1	-14.2%	i
O=C(O)CN1CCN(Cc2ccc(F)cc2)C1=O	-9.8%	-6.1%
Cc1cc(C)cc(-n2ccnc2SCC(=O)O)c1	-8.6%	-14.8%

Source: PubChem BioAssay (National Center for Advancing Translational Sciences (NCATS))

Compounds as they come; about 0.87% have a hit in one of these screens.
